Cruzain Triton: blocks cruzain activity in presence of Triton detergent | P25779 | purified cruzain, Z-FR-AMC fluorescence, 0.01% Triton | Potency, µM, for the others: max response, negative = inhibition, most hits filed as inhibitors | 200,000 tested, 0.43% active;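 further: plate controls were neutral wells for no effect and buffer without enzyme for full effect; nearly all actives have a fitted effect of over 40% in size; top concentration of the series not given in the record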
Target sequence (P25779 123-467 limits assumed): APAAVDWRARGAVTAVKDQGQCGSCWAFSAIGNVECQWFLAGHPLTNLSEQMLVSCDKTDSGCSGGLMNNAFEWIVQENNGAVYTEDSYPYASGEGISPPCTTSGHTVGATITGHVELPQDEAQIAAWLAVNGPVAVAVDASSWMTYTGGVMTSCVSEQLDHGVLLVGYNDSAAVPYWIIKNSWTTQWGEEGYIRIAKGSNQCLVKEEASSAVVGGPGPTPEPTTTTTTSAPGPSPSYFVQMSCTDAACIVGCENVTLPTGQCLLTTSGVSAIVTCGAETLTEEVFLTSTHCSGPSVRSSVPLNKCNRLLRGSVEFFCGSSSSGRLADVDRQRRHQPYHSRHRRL
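Cysteine protease activity tested under reducing, mildly acidic conditions (100 mM sodium acetate pH 5.5, 5 mM DTT) plus 0.01% Triton X-100. Cruzain 1.5 nM; substrate Z-FR-AMC 2 uM; 15 min compound preincubation at room temperature.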
NS1 function inh: inhibitors of influenza NS1 protein function. S. cerevisiae slowed by influenza A NS1, growth recovery by OD600. Potency, µM (doses to about 46.1 µM), without a hit: at the top dose activity, positive = more growth. 270,000 tested, 0.4% active. AID 2326; active means well fitted rising curve with a large enough effect; inconclusive means small, poorly fitted or top-dose-only effect; inactive means no such curve, though single readings can be large or run the other way; further: nearly all actives have a fitted effect of over 50% in size
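Read-out: OD600 growth recovery of NS1-expressing budding yeast. Cells grown overnight at 30C in -URA glucose medium, washed, resuspended and diluted 1:100 in 2% galactose assay medium, pH 6.0. Same strain lacking NS1 served as positive control.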
Marburg entry inh: blocks Marburg virus binding to or entry into cells; Marburg virus pseudotyped entry inhibition, cell reporter; control for the full effect not named in the record; about a third of the inactives were read at about 46 µM; Potency, µM (highest dose often 37.8 µM), without a hit: at the top dose activity change, negative = inhibition, most hits filed as inhibitors; 300,000 tested, 1.8% active; active = well fitted inhibition curve with a large enough effect; inconclusive = small, poorly fitted or top-dose-only effect, or effect the other way; inactive = flat fitted curve, though single readings scatter; tested in HEK293 cells; about a fifth of its hits are not listed in these tables; further: on the % scale 0 is the no-effect control and ±100 the full control effect; luciferase read-out
SARS PLpro yeast: SARS-CoV PLP inhibition in yeast. S. cerevisiae expressing SARS-CoV PLpro, growth rescue; control for the full effect not named in the record. Potency, µM (series often up to 32.9 µM), for inactives: at the top dose activity, positive = growth rescue. 330,000 tested, 0.19% active. AID 485353; active means well fitted rising curve with a large enough effect; inconclusive means small, poorly fitted or top-dose-only effect; inactive means no such curve, though single readings can be large or run the other way; further: 0% is about no effect; nearly all actives have a fitted effect of over 55% in size; growth read by luminescence after 48 h
LASV entry inh: Lassa virus entry inhibition; Potency, µM (titrated, usually from 37.9 µM), inactives show at the top dose activity change, negative = inhibition, actives largely listed as inhibitors; 300,000 tested, 1.2% active; Lassa virus pseudotype entry inhibition, cell reporter; control for the full effect not named in the record; active means well fitted inhibition curve with a large enough effect; inconclusive means small, poorly fitted or top-dose-only effect, or effect the other way; inactive means flat fitted curve, though single readings scatter; tested in HEK293 cells; further: on the % scale 0 is the no-effect control and ±100 the full control effect; nearly all actives have a fitted effect of over 50% in size; luciferase read-out
RE007 growth inh: less growth of the S. pombe RE007 Vpr strain. S. pombe RE007 Vpr strain, BacTiter-Glo ATP luminescence, 24 h; control for the full effect not named in the record. Potency, µM (doses to about 92.2 µM), for inactives: at the highest dose activity change, negative = less growth. 360,000 tested, 0.21% active. AID 651644; active = well fitted falling curve with a large enough effect; inconclusive = small, poorly fitted or top-dose-only effect; inactive = no such curve, though single readings can be large or run the other way;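 further: on the % scale 0 is the no-effect control and ±100 the full control effect; nearly all actives have a fitted effect of over 50% in size; the assay follows cell death caused by Vpr and the record does not say whether a fall means rescue or toxicity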
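Fission yeast strain RE007, carrying one chromosomally integrated HIV-1 vpr copy, was seeded at OD 0.01 in PMG+AL medium with 23 nL pinned compound. After 24 h at 30 °C and 99% humidity, viability was read by BacTiter-Glo luminescence.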
StopGo reporter: FMDV 2A StopGo reporter, luciferase signal; human cells with a luciferase reporter of 2A StopGo recoding; control for the full effect not named in the record; Potency, µM (doses to about 57.9 µM), without a hit: at the top dose signal change, negative = less light; 410,000 tested, 1.2% active; active = well fitted falling curve with a large enough effect; inconclusive = small, poorly fitted or top-dose-only effect; inactive = no such curve, though single readings can be large or run the other way; tested in HEK293T cells; further: on the % scale 0 is the no-effect control and ±100 the full control effect; nearly all actives have a fitted effect of over 45% in size; luciferase light after 4 h
Cruzain inh noDet: inhibitors of Trypanosoma cruzi cruzain without detergent. AID 1476. 200,000 tested, 2.3% active. Potency, µM, inactives show max response, negative = inhibition, most hits filed as inhibitors. purified cruzain, Z-FR-AMC fluorescence, no detergent;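 further: plate controls were enzyme without inhibitor for no effect and buffer without enzyme for full effect; nearly all actives have a fitted effect of over 40% in size; top concentration of the series not given in the record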
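Detergent-free condition (0.00005% Triton X-100) in acetate buffer pH 5.5 with DTT. 1.5 nM enzyme and compound were pre-mixed 15 min, then 2 uM Z-FR-AMC substrate added; reaction progress from fluorescence change between first and third reads (60 s).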
* = called active by the depositor; & = joins results of further samples; [ ] = remark or other dose. Unless noted, the call rests on the fitted dose curve; in most records, active means well fitted curve in the direction sought with a large enough effect; inconclusive means small, poorly fitted or top-dose-only effect, or another doubt; inactive means no such curve, though single readings can be large; an effect the other way counts as inactive or inconclusive. Potency means the concentration at half of the fitted maximal effect.

For CC1CCCC(C)N1/N=C/c1cc(Br)cc(Br)c1O (stereo not given) the results were Cruzain Triton -2.9%, NS1 function inh -27%, Marburg entry inh inconclusive, SARS PLpro yeast -16%, LASV entry inh 6%, RE007 growth inh inconclusive, StopGo reporter -14% and Cruzain inh noDet -1%.
Cc1ccc(C(=O)COC(=O)c2ccc(Cl)c(N)c2)s1 was read as Marburg entry inh -7%, SARS PLpro yeast 1%, LASV entry inh -2%, RE007 growth inh 6% and StopGo reporter 35%[activator].
Screening COc1ccc(-n2c3c(c(=O)[nH]c2=O)C(NS(=O)(=O)c2ccc(Cl)cc2)(C(F)(F)F)C(=O)N3)cc1 (stereo not given) returned NS1 function inh 3%, Marburg entry inh 8%[46.1 µM], SARS PLpro yeast -3%, LASV entry inh -3%, RE007 growth inh 11% and StopGo reporter 4%.
For O=C(CCCCCn1c(=O)[nH]c2ccsc2c1=O)NCc1cccs1 the results were Cruzain Triton 1.5%, NS1 function inh -1%, Marburg entry inh 33%&33%, SARS PLpro yeast -3%, LASV entry inh -5%, RE007 growth inh -14%, StopGo reporter 36%[activator] and Cruzain inh noDet -9%.
`CC(=O)c1ccc(Oc2ncnc3c2oc2ccccc23)cc1` gave Cruzain Triton 3.2%, LASV entry inh 13%[46.1 µM], StopGo reporter 35% and Cruzain inh noDet -6%.
Screening Cc1ccc2[nH]c(=O)c3cc(C(=O)N(C)c4ccc(C)c(C)c4)sc3c2c1 returned NS1 function inh -1%, SARS PLpro yeast 3%, RE007 growth inh -1% and StopGo reporter inconclusive.
Cc1cc(NC(=O)C2CCCCC2)n(-c2nc3ccccc3[nH]2)n1 was read as Cruzain Triton -10%, NS1 function inh -6%, Marburg entry inh 0%[46.1 µM], SARS PLpro yeast -5%, LASV entry inh inconclusive, RE007 growth inh -14%, StopGo reporter -23% and Cruzain inh noDet -2%.
For CC(C)(C)SCCSC1=CC(=O)CC(c2ccccc2)C1 (stereo not given) the results were NS1 function inh -36%, Marburg entry inh 13%, SARS PLpro yeast -3%, LASV entry inh 16%, RE007 growth inh -4% and StopGo reporter 55%[activator].
For CCOc1ccc(Nc2ccc(N3C(=O)CCC3=O)cc2[N+](=O)[O-])cc1 the results were Marburg entry inh 9%[46.1 µM], SARS PLpro yeast -1%, LASV entry inh 6%, RE007 growth inh -1% and StopGo reporter -6%.
For O=C1CCN(CCCc2ccccc2)CCN1[C@H](CO)c1ccccc1 the results were NS1 function inh 2%, SARS PLpro yeast 3%, RE007 growth inh -13% and StopGo reporter -21%.
For Cc1cc(NC(=O)CSc2ncnc3sc4c(c23)CCC(C)C4)no1 (stereo not given) the results were Cruzain Triton 4.9%, NS1 function inh 0%, Marburg entry inh -2%, SARS PLpro yeast 0% and Cruzain inh noDet 5µM*.
`O=c1c(-c2ccc(Cl)cc2)[n+]([O-])c2ccccc2n1O` gave Cruzain Triton -0.1%, NS1 function inh -12%, Marburg entry inh 10%, SARS PLpro yeast -6%, LASV entry inh 10%, RE007 growth inh 5%, StopGo reporter -25% and Cruzain inh noDet inconclusive.
For CCOc1ccc2nc(SCC(=O)Nc3ccc4c(c3)OCCO4)[nH]c2c1 the results were Cruzain Triton -9.6%, NS1 function inh -3%, Marburg entry inh -22%, SARS PLpro yeast -2%, LASV entry inh inconclusive, RE007 growth inh -14%, StopGo reporter -9% and Cruzain inh noDet -3%.
For O=C(NCc1ccc(Cl)cc1)c1ccc2c(c1)N(Cc1ccccc1F)C(=O)c1ccccc1S2=O (stereo not given) the results were Cruzain Triton 1.4%, Marburg entry inh inconclusive, LASV entry inh 2%[46.1 µM], StopGo reporter -16% and Cruzain inh noDet -16%.
CCn1cc(/C=C(\NC(=O)c2ccccc2OC)C(=O)NCCCN2CCOCC2)c2ccccc21 was read as NS1 function inh -2%, SARS PLpro yeast inconclusive, RE007 growth inh -13% and StopGo reporter 15%.

Overlap with the part before: 2 entries, then new ones.
For O=C(NCc1ccc(Cl)cc1)c1ccc2c(c1)N(Cc1ccccc1F)C(=O)c1ccccc1S2=O (stereo not given) the results were Cruzain Triton 1.4%, Marburg entry inh inconclusive, LASV entry inh 2%[46.1 µM], StopGo reporter -16% and Cruzain inh noDet -16%.
CCn1cc(/C=C(\NC(=O)c2ccccc2OC)C(=O)NCCCN2CCOCC2)c2ccccc21 was read as NS1 function inh -2%, SARS PLpro yeast inconclusive, RE007 growth inh -13% and StopGo reporter 15%.
Screening COc1cc([N+](=O)[O-])cc(/C=N/NC(=O)c2cc(-c3ccccc3)nc3ccccc23)c1O returned NS1 function inh 7%, SARS PLpro yeast -1%, RE007 growth inh 19% and StopGo reporter -12%.
O=C(COc1ccccc1)N1CCN(C2CC3CCC2C3)CC1 (stereo not given) was read as Cruzain Triton 0.2%, NS1 function inh 4%, Marburg entry inh 12%, SARS PLpro yeast -8%, LASV entry inh inconclusive, RE007 growth inh 12%, StopGo reporter -1% and Cruzain inh noDet -10%.
For O=C(Cn1cc2c(n1)CCCC2)Nc1ccccc1Cl the results were Cruzain Triton 6.2%, NS1 function inh 3%, SARS PLpro yeast -1%, RE007 growth inh 11%, StopGo reporter 1% and Cruzain inh noDet 2%.
Screening COC(=O)c1ccccc1NC(=O)CSc1nc2cccnc2n1C returned NS1 function inh -9%, SARS PLpro yeast 0%, RE007 growth inh 7% and StopGo reporter -13%.
Screening C=CCn1c(Cc2cccs2)nnc1SCC(=O)Nc1ccc(C(=O)OCC)cc1 returned Cruzain Triton -5.7%, NS1 function inh -39%, Marburg entry inh -22%, SARS PLpro yeast -8%, LASV entry inh -29%, RE007 growth inh 6%, StopGo reporter -14% and Cruzain inh noDet 14%.
COc1cccc(C2C(C#N)=C(N)Oc3cc(C)[nH]c(=O)c32)c1OC (stereo not given) was read as Cruzain Triton 1.9%, NS1 function inh 11%, Marburg entry inh -1%&-1%, SARS PLpro yeast 11%, LASV entry inh 18%, RE007 growth inh -13%, StopGo reporter -25% and Cruzain inh noDet 0%.
`CN(C(=O)CSc1nc2ccccc2n1CC(=O)N(C)C1CCCCC1)c1ccccc1` gave Cruzain Triton -2.0%, LASV entry inh inconclusive, StopGo reporter -15% and Cruzain inh noDet -3%.
COc1ccc(CNC(=O)C(=O)NCCC2CCCCN2S(=O)(=O)c2cccs2)cc1 (stereo not given) was read as Marburg entry inh 10%, SARS PLpro yeast 0%, LASV entry inh inconclusive, RE007 growth inh 5% and StopGo reporter inconclusive.
`CCSc1nnc(NC(=O)c2cc(C)oc2C)s1` gave Cruzain Triton 5.4%, NS1 function inh -11%, Marburg entry inh 29%, SARS PLpro yeast -7%, LASV entry inh inconclusive, RE007 growth inh -6%, StopGo reporter 0% and Cruzain inh noDet -9%.
Screening Cc1nn(Cc2c(F)cccc2Cl)c(C)c1NC(=O)C1CC1 returned Cruzain Triton -1.0%, NS1 function inh -3%, Marburg entry inh 28%, SARS PLpro yeast 4%, LASV entry inh -21%, RE007 growth inh 5%, StopGo reporter -3% and Cruzain inh noDet -1%.
CC(C(=O)NC1CCS(=O)(=O)C1)N1C(=O)/C(=C/c2ccc(Cl)cc2)SC1=S (stereo not given) was read as NS1 function inh -2%, SARS PLpro yeast -3%, RE007 growth inh -19% and StopGo reporter inconclusive.
`Fc1ccc(NC(=S)N2CCN(c3ccccn3)CC2)cc1Cl` gave Marburg entry inh inconclusive, LASV entry inh -3%[46.1 µM], RE007 growth inh -12% and StopGo reporter 9%.
Screening Cc1c(-c2n[nH]c(=S)n2-c2ccc(Br)cc2)nnn1-c1ccc(Cl)cc1 returned NS1 function inh 7%, Marburg entry inh 0%[46.1 µM], SARS PLpro yeast 1%, LASV entry inh -1%[46.1 µM], RE007 growth inh 25% and StopGo reporter 7%.
Screening CC(=O)c1ccc(C(=O)Nc2ccc3c(c2)C(=O)NC3=O)cc1 returned NS1 function inh -9%, SARS PLpro yeast 10%, RE007 growth inh -7% and StopGo reporter -18%.
For CCOc1ccc(NC(=O)CN2CCN(CC(=O)Nc3ccc(N(C)C)cc3)CC2)cc1 the results were NS1 function inh 4%, SARS PLpro yeast 5%, RE007 growth inh 92% and StopGo reporter 27%.
`Nc1cccc(-c2nnc3n2CCCCC3)c1` gave NS1 function inh 3%, Marburg entry inh 21%, SARS PLpro yeast 2%, LASV entry inh -2%, RE007 growth inh 2% and StopGo reporter 0%.
For CCn1c(SCc2nc3cc(OC)c(OC)cc3c(=O)[nH]2)nnc1-c1ccncc1 the results were Cruzain Triton -0.1%, NS1 function inh -2%, Marburg entry inh 8%, SARS PLpro yeast -1%, LASV entry inh -16%, RE007 growth inh 7%, StopGo reporter 3% and Cruzain inh noDet -5%.
`Cc1cc2oc(C(=O)Nc3ccc(S(=O)(=O)Nc4nccs4)cc3)cc(=O)c2cc1Cl` gave Cruzain Triton -16%, NS1 function inh -4%, SARS PLpro yeast inconclusive, RE007 growth inh 2%, StopGo reporter -8% and Cruzain inh noDet -20%.
CCOc1cc(C(=O)Nc2ccc(S(=O)(=O)Nc3cc(C)on3)cc2)cc(OCC)c1OCC was read as Cruzain Triton -13%, NS1 function inh -13%, Marburg entry inh -4%&24%, SARS PLpro yeast -1%, LASV entry inh -3%, RE007 growth inh 13% and Cruzain inh noDet inconclusive.
For Cn1c(=O)c2c(nc(CN3CCN(c4ccccc4)CC3)n2CCCc2ccccc2)n(C)c1=O the results were NS1 function inh -88%, Marburg entry inh 26%, LASV entry inh 12%, RE007 growth inh 5% and StopGo reporter -1%.
`Cc1ccc(NC(=O)Cn2ncn3c(cc4ccccc43)c2=O)cc1C` gave Cruzain Triton -4.4%, Marburg entry inh 13µM*, StopGo reporter 6% and Cruzain inh noDet -29%.
CCc1ccc(CN(C)C(=O)C2=CC=CN3CCS(=O)(=O)N=C23)cc1 was read as Marburg entry inh -23%[46.1 µM], SARS PLpro yeast 1%, LASV entry inh 15%, RE007 growth inh -8% and StopGo reporter -13%.
`CC(C)NC(=O)c1ccc(CSCc2ccccc2Cl)o1` gave NS1 function inh -11%, Marburg entry inh inconclusive, SARS PLpro yeast -3%, LASV entry inh inconclusive, RE007 growth inh 9% and StopGo reporter -28%.

Bioassay records from PubChem.
